Assay outcomes (PubChem BioAssay)
D2 ag: Beta-Arrestin HTS for Positive Allosteric Modulators of the Human D2 Dopamine Receptor: Agonists | DiscoveRx PathHunter D2 beta-arrestin, luminescence, 90 min; 100% = 57 uM dopamine signal | D(2) dopamine receptor (Homo sapiens), P14416 | 360,000 compounds, 0.084% hits | activation, % (concentration not given with the values); in the data active = activation above about 40%; inconclusive = about 15% to 40%; inactive = below about 15%; further: the text of the record calls up to 30% inactive
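DiscoveRx PathHunter D2 beta-arrestin cells (2,100/well) attached overnight, then compound-stimulated 90 min at 37 C in HBSS/10 mM HEPES/0.1% Tween-20 buffer; beta-galactosidase complementation read by luminescence after 1 h at ambient temperature. Dopamine 57 uM final (EC100) as control.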
PINK1 expr mod: A Quantitative High throughput Screen to Identify Chemical Modulators of PINK1 Expression; PINK1 immunofluorescence, high-content cytometry, 24 h; Potency, µM (titrated, usually from 76.6 µM), for the others: at the top dose activation (PINK1 increase), actives largely listed as activators; 410,000 compounds, 0.2% hits; active = well fitted activation curve with a large enough effect; inconclusive = small, poorly fitted or top-dose-only effect; inactive = flat fitted curve, though single readings scatter; cell line not stated here;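 further: potency means the concentration at half of the fitted maximal effect; % of control where 0% means no effect; nearly all actives have a fitted effect of over 65% in size; a mitochondrial uncoupler was the plate control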
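Stable cell line, 250 cells/well, 12 h attachment; compounds pinned at 5 concentrations, 24 h; CCCP control. Fixed with nuclear dye, primary antibodies 12 h at 10 degrees C, secondary plus cell stain; laser-scanning cytometer read.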
Six1-Eya2 inh: qHTS Assay for Inhibitors of the Six1/Eya2 Interaction; AID 651725, 2012; Homeobox protein SIX1 (Homo sapiens) + Protein phosphatase EYA2 (Homo sapiens), …; AlphaScreen GST-Six1/His-Eya2 binding, biochemical; stronger effect = lower value; control for the full effect not named in the record; activity change, % (concentration not given with the values); 360,000 compounds, 0.56% hits; in the data active = activity change below about -65%; inconclusive = about -30% to -65%; inactive = above about -30%; further: on the % scale 0 is the no-effect control and ±100 the full control effect
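AlphaScreen luminescence read after one hour at 37 °C in darkness. Pin-transferred compounds met GST-Six1 and His-Eya2 protein (5X stock 250 nM/500 nM) plus glutathione donor and Ni-chelate acceptor beads (5X, 50 ug/mL).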
TRPV1 PAM: HTS Assay for Compounds that Act as Potentiators of the Vanilloid Receptor 1; Transient receptor potential cation channel subfamily V member 1 (Homo sapiens), Q8NER1; TRPV1-expressing cells, Fluo-8 calcium influx, capsaicin EC20 potentiation; host cell line not named in the record; control for the full effect not named in the record; potentiation, % at 8.33 µM; 320,000 compounds, 0.02% hits; AID 540277, 2011; active means potentiation above 80%; inconclusive means 30% to 80%; inactive means below 30%; further: 0% is about no effect
Target sequence (Q8NER1 whole entry, looked up): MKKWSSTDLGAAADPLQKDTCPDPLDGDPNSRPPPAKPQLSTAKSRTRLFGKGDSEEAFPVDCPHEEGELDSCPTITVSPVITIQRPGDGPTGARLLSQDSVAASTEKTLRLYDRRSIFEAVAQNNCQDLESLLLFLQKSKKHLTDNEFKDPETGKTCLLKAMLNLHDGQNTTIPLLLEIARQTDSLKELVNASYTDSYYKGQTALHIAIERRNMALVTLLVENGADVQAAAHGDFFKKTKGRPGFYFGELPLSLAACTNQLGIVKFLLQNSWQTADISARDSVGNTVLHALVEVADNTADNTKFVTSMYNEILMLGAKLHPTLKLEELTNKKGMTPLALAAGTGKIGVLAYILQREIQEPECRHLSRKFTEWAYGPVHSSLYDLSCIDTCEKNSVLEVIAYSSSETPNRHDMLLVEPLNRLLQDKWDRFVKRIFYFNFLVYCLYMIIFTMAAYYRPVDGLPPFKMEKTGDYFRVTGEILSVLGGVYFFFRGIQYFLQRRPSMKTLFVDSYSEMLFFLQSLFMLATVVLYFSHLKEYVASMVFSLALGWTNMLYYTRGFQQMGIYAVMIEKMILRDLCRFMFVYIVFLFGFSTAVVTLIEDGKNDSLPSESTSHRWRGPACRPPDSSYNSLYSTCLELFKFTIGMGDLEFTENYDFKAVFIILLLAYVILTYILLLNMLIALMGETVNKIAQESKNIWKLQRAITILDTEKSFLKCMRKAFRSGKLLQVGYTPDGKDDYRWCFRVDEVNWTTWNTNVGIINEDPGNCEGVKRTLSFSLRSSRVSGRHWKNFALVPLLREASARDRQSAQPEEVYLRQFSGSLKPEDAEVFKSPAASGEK
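TRPV1-expressing cells were cultured overnight at 35.5C and loaded with Fluo-8 calcium dye for 40 to 90 min at room temperature. After a 10 s baseline, compound was added and calcium influx was read kinetically for 3 min (ex 480/em 520 nm).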
CtBP-E1A blk: qHTS Assay for Inhibitors of the CtBP/E1A Interaction; CtBP / adenovirus E1A interaction (AlphaScreen); AlphaScreen GST-E1A/His-CtBP binding, 1536-well; stronger effect = lower value; control for the full effect not named in the record; 340,000 compounds, 0.49% hits; activity change, % (no concentration beside the values); in the data active means activity change below about -65%; inconclusive means about -30% to -65%; inactive means above about -30%; further: on the % scale 0 is the no-effect control and ±100 the full control effect
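In 5 uL wells, 23 nL compound meets equimolar GST-E1A and His-CtBP (5X stock 125 nM each) for 2 h, 37 °C. Beads (5X, 50 ug/mL) then 1 h, 37 °C, dark.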
Sfp inh: qHTS Assay for Inhibitors of Bacillus subtilis Sfp phosphopantetheinyl transferase (PPTase); 4'-phosphopantetheinyl transferase ffp (Bacillus subtilis), Q9F4F7; Biochemical Sfp PPTase activity, qHTS; Potency, µM, for the others: max response, negative = inhibition, actives largely listed as inhibitors; 310,000 compounds, 3.5% hits; AID 1490, 2009; active means well fitted inhibition curve with a large enough effect; inconclusive means small, poorly fitted or top-dose-only effect, or another doubt; inactive means no such curve, though single readings can be large or run the other way;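 further: the enzyme is Sfp with the accession as filed and its product quenches rhodamine fluorescence; potency means the concentration at half of the fitted maximal effect; 0% = enzyme reaction without inhibitor and -100% = no enzyme wells; top concentration of the series not given in the record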
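With Hepes-Na pH 7.6 buffer containing 10 mM MgCl2, Sfp (15 nM) modified BHQ-2-YbbR (12.5 uM) using rhodamine-CoA (5 uM). Two reads 30 minutes apart at 525/598 nm yielded each well's rate.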
D2 potentiator: Beta-Arrestin HTS for Positive Allosteric Modulators of the Human D2 Dopamine Receptor: Potentiators. AID 624464, 2012. D(2) dopamine receptor (Homo sapiens), P14416. DiscoveRx D2 beta-arrestin cells, luminescence, 90 min; 100% = 57 uM dopamine signal. potentiation, % (test concentration not listed). 360,000 compounds, 0.23% hits; active = potentiation of 50% or more; inconclusive = 30% to 50%; inactive = 30% or less;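 further: compound concentration not given in the record; tested on top of an EC20 dose of dopamine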
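PathHunter D2 cells, attached overnight at 37 deg C, received compound in DMSO plus dopamine at EC20 (50 nM final) for 90 min at 37 deg C. Beta-arrestin recruitment was read as luminescence after 1 h with detection reagent at ambient temperature.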
* = called active by the depositor; ? = inconclusive; · = not tested or not shown; & = joins results of further samples; [ ] = dose if it differs, or a comment.

SMILES | D2 ag | PINK1 expr mod | Six1-Eya2 inh | TRPV1 PAM | CtBP-E1A blk | Sfp inh | D2 potentiator
COc1ccccc1N(Cc1ccccc1)S(=O)(=O)c1cccc(C(=O)Nc2cccc(C)n2)c1 | 0.5 | 1.9% | -8 | 16 | -8 | 17% | 4
CCOC(=O)COc1ccc2c(C#N)c3ccccn3c2c1 | ? | 1.0% | 53 | -12 | · | -20% | -4
CC1(C)Cc2cccc(OCC(=O)Nc3nccs3)c2O1 | -1.9 | -1.7% | -2 | -3 | -1 | -3% | -6
CC(C)c1nc(N2CCN(C(=O)c3ccccc3)CC2)c(C#N)c2c1COC(C)(C)C2 | -2.9 | -1.1% | 0 | -11 | -1 | -22% | -17
NS(=O)(=O)c1ccc(NC(=S)Nc2ccn(Cc3cccc4ccccc34)n2)cc1 | -3.5 | 2.1% | -8 | -1 | -25 | 27% | -6
COc1cccc(-c2ccc(C#N)c(SCC(=O)NCc3ccco3)n2)c1 | 2.3 | 2.0% | 2 | 23 | -12 | 14% | -13
CCN(CC)CCC(=O)N1c2ccccc2CCc2ccc(NC(=O)OC)cc21 | 0.0 | 1.2% | -9 | 5 | 9 | -2% | -4
CCOc1ccc(-n2ccc(=O)c(C(=O)O)n2)cc1 | -2.4 | 0.9% | 13 | -2 | 0 | 8% | -2
Cc1ccc(C(=O)O)cc1NC(=O)CSc1ncnc2sc3c(c12)CCC3 | -2.6 | -0.2% | 1 | ? | 4 | 29% | -3
O=C(NCc1ccc(Cl)cc1)C(=O)NCC1OCCN1S(=O)(=O)c1cc(F)ccc1F (stereo not given) | 2.7 | 5.4% | -2 | -4 | 5 | 5% | 15
O=C(Nc1nncs1)c1ccccc1NS(=O)(=O)c1cccs1 | -2.3 | -1.4% | -3 | -5 | -11 | 0% | 14
CC(=O)OCCn1c(=O)c2cc3c(=O)n(CCOC(C)=O)c(=O)c3cc2c1=O | -2.3 | 3.3% | 5 | 28 | 4 | 23% | -3
CCOc1ccccc1Nc1nnc(SCC(=O)Nc2cccc(S(=O)(=O)NC3=NCCCCC3)c2)s1 | 0.8 | 4.4% | -16 | -1 | -11 | ? | -17
COc1ccc(-c2cc(C(=O)N3CCN(Cc4ccccc4)CC3)no2)cc1OC | 1.2 | 8.4%[38.3 µM] | -9 | ? | -8 | ? | -14
COc1ccccc1N1CCN(C(=O)CCS(=O)(=O)c2ccc3c(c2)oc(=O)n3C)CC1 | -5.9 | 1.3%&1.4% | 1 | 1 | 4 | 6% | -2
O=C(NCc1ccccc1)c1c[nH]c2ccc(S(=O)(=O)Nc3ccc4c(c3)OCCO4)cc2c1=O | -0.9 | 1.2% | -21 | 9 | -18 | 7% | -6
CCOc1ccccc1-c1noc(CCCC(=O)NC2CCCCC2)n1 | -1.6 | 4.3% | 0 | -52 | 16 | 3% | -3
CCC(C)CCN1C(Nc2ccccc2)=NC[C@@H]1Cc1ccccc1 (stereo not given in full) | -4.2 | 0.8% | 0 | 3 | 6 | 6% | -27
Cc1ccc(NC(=O)COC(=O)c2ccc(C)c(S(=O)(=O)N3CCOCC3)c2)cc1 | 7.9 | 4.3% | -8 | -24 | -3 | · | 17
CCOC(=O)c1c(-c2ccc(F)cc2)csc1NC(=O)C1CC=CCC1C(=O)O (stereo not given) | -0.8 | -3.2% | -4 | 12 | 2 | 40µM* | 6
CC1(C(=O)NS(=O)(=O)c2cccc(C#N)c2)CCN1C(=O)CC1CC1 (stereo not given) | -4.5 | 0.8% | -1 | · | -4 | · | -5
O=C(Nc1ccnn1C1CCN(C(=O)c2ccc(F)cc2)CC1)C1CCOC1 (stereo not given) | -1.9 | -0.1% | 0 | 2 | -5 | 12% | 13
COc1ccc(OC)c(/C=N\NC(=O)c2cc3c(ccc4ccccc43)o2)c1 | 3.8 | 11% | -10 | 6 | -18 | 2% | 4
Cc1nc2ccccc2n1S(=O)(=O)c1ccc(Br)cc1 | -3.3 | 2.7% | 0 | -7 | 9 | 7% | -19
COc1ccc(N2C(=O)c3cc4ccccc4cc3C2=O)cc1 | 4.2 | -0.7% | 1 | -11 | · | 9% | -2
O=C1CCC(=O)N1CNc1ccccn1 | -2.2 | -1.6% | 5 | ? | 6 | 12% | -18
Cn1c(-c2ccsc2)c(-c2cccs2)c2cc(-c3cccc4[nH]ccc34)ccc21 | -4.6 | 5.6% | -24 | -1 | -16 | · | -4
CCN(C(=O)COC(=O)Cc1c[nH]c2ccccc12)C1CCS(=O)(=O)C1 (stereo not given) | -0.5 | 0.2% | 7 | 5 | 5 | 5% | 5
COc1ccccc1N1CCN(CC(=O)N(CC(C)C)c2c(N)n(CC(C)C)c(=O)[nH]c2=O)CC1 | -2.7 | 1.2% | -3 | 0 | 8 | 13% | -11
CN(C)S(=O)(=O)c1ccc(C(=O)OCCc2ccccc2)cc1 | -1.6 | 1.0% | 14 | -6 | -10 | 24% | 0
c1ccc2n[nH]nc2c1 | 2.1 | 0.4% | 5 | · | 2 | · | 0
COc1ccccc1/C=C1\SC(=S)N(Nc2nc(C)cc(C)n2)C1=O | -1.7 | ? | -8 | 5 | -11 | -29% | -15
Cc1c(Cl)cccc1NC(=O)CCS(=O)(=O)c1cccc2nonc12 | -4.7 | 14% | 4 | -9 | 0 | 18% | -8
CCOC(=O)c1c[nH]n(-c2ccccc2)c1=O | -8.0 | 1.3% | 1 | -1 | 6 | -5% | 3
Cn1cc(CN2CCC(CO)(CCCc3ccccc3)CC2)c(-c2ccccc2)n1 | -0.7 | -1.1% | 8 | 3 | · | -6% | -18
CCCCn1nc(NC(=O)CCC)c2cc3cc(OC)ccc3nc21 | 7.8 | ? | 23 | 0 | 31 | -5% | 7
c1ccc2c(C(c3nnnn3-c3ccc4c(c3)OCCO4)N3CCCCC3)ccnc2c1 (stereo not given) | · | 4.9% | -15 | · | -19 | · | ·
CC(C)=CCN1CCN(Cc2ccc(C#CC(C)(C)O)s2)CC1CCO (stereo not given) | -3.1 | -0.6% | 8 | -12 | 8 | 10% | -14
CC(C(=O)O)n1c2ccccc2c2cnn(C)c(=O)c21 (stereo not given) | 0.2 | 0.0% | 27 | 14 | 3 | 3% | -7
CCOC(=O)C1CCN(C(c2cc(OC)c(OC)c(OC)c2)c2sc3nc(C)nn3c2O)CC1 (stereo not given) | 1.5 | 6.4% | 9 | 8 | 24 | 20% | -3
CC1(C)NC(=O)N(CCOCCOc2c(Cl)cc(Cl)cc2Cl)C1=O | 0.3 | -2.7% | 1 | -19 | -8 | 13% | -7
Cc1ccc(NS(=O)(=O)c2cccc(C(=O)NCC(c3ccco3)N3CCCC3)c2)cc1 (stereo not given) | -6.3 | -1.8% | -2 | -9 | -7 | · | -5
O=C(/C=C/c1ccc([N+](=O)[O-])cc1)OCC(=O)N1CCCC1 | 2.5 | -0.5% | 1 | · | -68* | · | -12
NCCc1nnc(SCc2c(Cl)cccc2Cl)o1 | -1.7 | 0.1% | -2 | 6 | -3 | -4% | -8
Cc1ccc(NS(=O)(=O)c2c(C)nc3sccn3c2=O)cc1C | 6.2 | 0.3% | 5 | -7 | 5 | 19% | -3
CCOc1ccc(CCNC(=O)CCc2nnc3ccc(N4CCCC4)nn23)cc1OCC | -1.6 | 3.3% | 1 | -39 | 4 | 17% | 3
Cc1ccc(N(CC(=O)NCC2CCCO2)C(=O)CNS(=O)(=O)c2ccc(Cl)cc2)cc1 (stereo not given) | -0.7 | 0.0% | 1 | 14 | 6 | 16% | 1
Cc1ccccc1-c1c(C)oc2cc(O)ccc2c1=O | -2.3 | -0.6%[38.3 µM] | 4 | 6 | -6 | 12% | 6
Cc1n(Cc2ccccc2)c2cc([N+](=O)[O-])ccc2[n+]1Cc1ccccc1 | 0.8 | 0.5% | 2 | -25 | · | 3% | 2
Cc1ccc(OCC(=O)N2CCCC(CCC(=O)N(C)CCc3ccccn3)C2)cc1 (stereo not given) | -0.4 | 3.4% | 0 | -2 | · | -4% | -6
Cc1ccc(NC(=O)CC2S/C(=N/c3nccs3)N(C)C2=O)cc1C (stereo not given) | -2.7 | 4.3% | 2 | -8 | -1 | -1% | -34
O=C(O)c1nc(N2CCOCC2)nc(N2CCOCC2)n1 | -1.2 | 0.0%[38.3 µM] | 2 | 7 | 32 | 12% | -4
CC(Cc1nnc(N)s1)c1ccccc1 (stereo not given) | -2.1 | -1.4% | 8 | 13 | · | 50µM* | -3
CN(CC(=O)Nc1cccc(F)c1)C(=O)c1cc([N+](=O)[O-])ccc1N1CCCCC1 | -4.8 | -0.1% | -10 | -15 | -1 | · | -26
Cc1ccc(C)c(NC(=O)CNS(=O)(=O)c2ccccc2)c1 | -0.9 | -5.6%[38.3 µM] | 3 | -17 | 3 | 7% | 6
COc1ccc(Cc2nc3ccc(C(=O)N(C)Cc4cc(C)[nH]n4)cc3o2)cc1OC | -0.8 | 1.8% | -1 | 1 | -2 | 16% | -28
CC(Sc1cccc[n+]1[O-])C(=O)Nc1ccc([N+](=O)[O-])cc1Cl (stereo not given) | -2.8 | -0.8% | -1 | 18 | 2 | -3% | -3

Some of these compounds in order of count of non-hydrogen atoms, low to high:
SMILES | D2 ag | PINK1 expr mod | Six1-Eya2 inh | TRPV1 PAM | CtBP-E1A blk | Sfp inh | D2 potentiator
CC(Sc1cccc[n+]1[O-])C(=O)Nc1ccc([N+](=O)[O-])cc1Cl (stereo not given) | -2.8 | -0.8% | -1 | 18 | 2 | -3% | -3
Cc1ccc(NC(=O)CC2S/C(=N/c3nccs3)N(C)C2=O)cc1C (stereo not given) | -2.7 | 4.3% | 2 | -8 | -1 | -1% | -34
COc1ccc(Cc2nc3ccc(C(=O)N(C)Cc4cc(C)[nH]n4)cc3o2)cc1OC | -0.8 | 1.8% | -1 | 1 | -2 | 16% | -28

No enrichment for hits. Share with any hit: about 3.7%.
